Screens deposited in PubChem BioAssay by several laboratories.
HNF4A DNA FP: change in binding of human HNF4 alpha to DNA. actives 0.3% (n = 360,000). activity change, % at 10 µM. HNF4a-FITC DNA binding, fluorescence polarization, 1 h; in the data active means activity change above about 30%, passing the limit was not always enough;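 further: controls were the assay level and a saturating level of protein; the project sought stronger binding though the title names inhibitors; some compounds called inactive have numbers as strong as hits; positive values seem to mean higher polarization but the record does not say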
Target sequence (P41235 whole entry, looked up): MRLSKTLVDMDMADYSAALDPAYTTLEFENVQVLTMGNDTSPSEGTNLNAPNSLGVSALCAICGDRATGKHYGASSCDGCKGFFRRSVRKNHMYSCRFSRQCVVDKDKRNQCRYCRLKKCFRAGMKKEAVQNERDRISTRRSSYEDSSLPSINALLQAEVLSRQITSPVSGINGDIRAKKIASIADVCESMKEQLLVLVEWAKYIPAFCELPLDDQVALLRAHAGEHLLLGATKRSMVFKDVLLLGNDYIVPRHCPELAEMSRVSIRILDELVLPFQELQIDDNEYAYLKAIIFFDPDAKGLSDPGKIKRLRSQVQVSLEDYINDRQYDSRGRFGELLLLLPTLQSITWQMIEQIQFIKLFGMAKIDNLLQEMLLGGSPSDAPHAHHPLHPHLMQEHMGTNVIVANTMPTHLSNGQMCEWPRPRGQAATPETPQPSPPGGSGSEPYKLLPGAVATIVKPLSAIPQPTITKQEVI
B2AR ag: human beta-2 adrenergic receptor agonism by FAP; P07550; actives 0.43% (n = 340,000); Am2.2-beta2AR cells, FAP receptor internalization, flow cytometry; reference of the scale not given here; response, % (concentration not given with the values);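 active means response above a set limit, near 3 SD of response in nonfluorescent compounds, cut at about 42% in these data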;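 further: stock transfer was 100 nL into about 11 µL; a reference agonist was the positive control; negative values mostly stem from fluorescent compounds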
ALR inh: inhibitors of human sulfhydryl oxidase ALR. purified ALR, DTT oxidation, H2O2 HRP-luminol luminescence. inhibition, % (no concentration beside the values). actives 3.8% (n = 290,000). AID 485317;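 active means mean and each replicate at 75% or more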;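 further: stock transfer was 7.5 nL into about 7.5 µL; 0% = neutral wells and 100% = wells with inactivated enzyme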
FGF22 binding: FGF22 (human) thermal shift binding. calls only at 9.99 µM. AID 651658. actives 1.5% (n = 340,000). recombinant FGF22 thermal shift, SYPRO orange fluorescence; percent of sucrose octasulfate shift, DMSO zero;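 active means melting point raised past a set limit in the mean and every replicate; three in four hits are not shown here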
Target sequence (Q9HCT0 whole entry, looked up): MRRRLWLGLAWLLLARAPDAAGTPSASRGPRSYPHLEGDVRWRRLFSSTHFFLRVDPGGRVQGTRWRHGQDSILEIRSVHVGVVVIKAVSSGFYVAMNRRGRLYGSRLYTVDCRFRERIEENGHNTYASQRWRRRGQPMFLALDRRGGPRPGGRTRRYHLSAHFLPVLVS
Ecoli growth: E. coli growth inhibition; Escherichia coli growth, OD600, 23 h; stronger effect = lower value; OD600 absorbance (test concentration not listed); actives 0.21% (n = 330,000);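 active means OD600 absorbance below the run mean of sample wells minus 3.6 SD, in any replicate, cut at about 0.56 in these data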;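 further: stock transfer was 300 nL into about 60 µL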
UCH37 DUB inh: inhibitors of human deubiquitinating enzyme UCH37. AID 588478. Q9Y5K5. purified proteasome/UCH37, Ub-AMC cleavage fluorescence. inhibition, % (test concentration not listed). actives 0.33% (n = 330,000);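 active means mean of two replicates above 20%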;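 further: 0% = compound-free wells with enzyme and 100% = wells lacking proteasome; stock transfer was 100 nL into about 20 µL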
Target sequence (Q9Y5K5 whole entry, looked up): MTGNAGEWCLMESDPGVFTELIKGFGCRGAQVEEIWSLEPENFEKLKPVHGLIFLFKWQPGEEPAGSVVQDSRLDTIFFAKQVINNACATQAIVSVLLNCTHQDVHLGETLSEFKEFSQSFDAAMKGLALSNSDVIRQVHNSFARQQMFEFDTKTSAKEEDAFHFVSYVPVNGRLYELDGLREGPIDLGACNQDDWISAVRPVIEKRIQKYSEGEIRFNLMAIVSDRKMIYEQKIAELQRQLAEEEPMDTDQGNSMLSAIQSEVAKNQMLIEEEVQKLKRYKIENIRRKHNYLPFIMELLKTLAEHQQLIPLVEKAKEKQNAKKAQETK
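Test system – human UCH37 enzyme supplied as purified proteasome complex · Incubation – 30 min preincubation with enzyme, 25 min cleavage at room temperature · Detection – AMC fluorescence from Ub-AMC cleavage, excitation 355 nm, emission 460 nm · Benchmarks – no-proteasome wells (full inhibition) and compound-free wells (no inhibition)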
Ecoli rRNA inh: inhibits bacterial ribosomal RNA function over humanized ribosomes; E. coli WT GFP vs humanized-ribosome RFP mutants, fluorescence, 24 h; stronger effect = lower value; DMSO median 0, no signal -100; GFP signal change (wild-type ribosome), % (test concentration not listed); actives 1.6% (n = 350,000);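 active means significant combined selectivity score with lowered wild-type GFP, culture density cut under 30%, mutant RFP and density less affected; inactive means any of these conditions unmet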; further: one replicate is shown; some compounds called inactive have numbers as strong as hits
Ecoli rRNA inh OD600: second read-out of Ecoli rRNA inh, no call of its own (marks repeat the call); OD600 change, %; measured here: OD600 growth;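 optical density of the mix in the first replicate; 0 = DMSO median and -100 = no signal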
Ecoli rRNA inh RFP: also measured in Ecoli rRNA inh; calls as there; RFP signal change, %; measured here: RFP humanized mutant strains;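 first replicate; 0 = DMSO median and -100 = no signal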
Active calls of the source: *; i = inactive; . = no result given.

SMILES | HNF4A DNA FP | B2AR ag | ALR inh | FGF22 binding | Ecoli growth | UCH37 DUB inh | Ecoli rRNA inh | Ecoli rRNA inh OD600 | Ecoli rRNA inh RFP
COc1ccccc1NC(=O)NNC(=O)CN1C(=O)COc2ccccc21 | 0.5 | 3 | 16 | i | . | . | 4 | 2 | -0.2
CC1(C)CC(=O)C=C(NNC(=O)OC(C)(C)C)C1 | 0.4 | 3 | 5 | i | 0.63 | 2.7 | 14 | 8 | 1.4
O=C(N/C(=C/c1ccco1)C(=O)N1CCOCC1)c1cccs1 | 1.2 | -7 | 5 | i | 0.67 | 7.2 | 67 | 1 | 2.7
CC(C)C(OC(=O)c1cc2sccc2n1C)C(=O)NCC1CCCO1 (configuration not stated) | 1.5 | 3 | 2 | . | 0.73 | 1.5 | . | . | .
COc1ccc(-n2c(=O)cc(N3CC(C)OC(C)C3)[nH]c2=O)cc1 (configuration not stated) | -3.1 | -3 | 21 | . | 0.67 | -0.7 | . | . | .
CN1C[C@@H]2[C@@H]3C(=O)N(C)C(=O)[C@@H]3[C@](C)(C1=O)N2C(=O)c1ccc(Br)cc1 | 1.2 | 0 | . | i | . | 3.1 | 10 | 6 | -6.0
Cc1ccc(Cl)cc1N1CCN(S(=O)(=O)c2cc3c(cc2C)NC(=O)CO3)CC1 | -2.7 | 7 | -4 | i | 0.72 | -0.6 | 1 | -21 | -6.5
CSc1cccc(NC(=O)C2C3C=CC4(O3)C2C(=O)N(CCCN2CCOCC2)C4C(=O)NC2CCCCC2)c1 (configuration not stated) | 4.3 | -3 | -4 | i | 0.66 | 1.3 | 4 | 6 | -0.7
Cc1cccc(N2C(S)=C(C#N)C(=O)NC23CCCCC3)c1 | 1.6 | 5 | 21 | i | 0.67 | 4.7 | -3 | -4 | -2.3
CC(C)CCNC(=O)c1ccc(Cl)c(NC(=O)c2ccccc2F)c1 | . | . | -2 | i | 0.68 | -1.5 | 9 | 11 | -1.2
O=C(NN=Cc1ccccc1O)NN=Cc1ccccc1O | -0.4 | 0 | . | i | 0.68 | 3.9 | -15 | -34 | -9.6
CC(=O)OC[C@H]1O[C@@H](Oc2cc(O)cc3oc(-c4ccc(O)cc4)cc(=O)c23)[C@H](O[C@@H]2O[C@@H](C)[C@H](O)[C@@H](O)[C@H]2O)[C@@H](O)[C@@H]1O | 1.6 | -3 | 72 | i | . | -1.2 | -2 | -5 | 14
Cc1ccc(C(=O)c2c(NC(=O)c3ccccc3C)sc(C)c2C)cc1 | -1.2 | 8 | . | . | 0.71 | 6.3 | . | . | .
Nc1nc(=S)c2ncn(C3CCCC3)c2[nH]1 | 1.2 | -6 | 0 | i | . | . | 11 | 9 | -1.5
COc1cc(C2Nc3ccccc3C(=O)N2NS(C)(=O)=O)ccc1O (configuration not stated) | -2.9 | -1 | 29 | i | 0.69 | -37 | 6 | 3 | 4.0
Cc1ccccc1NC(=O)C1CC(=O)N(c2ccc3c4c(cccc24)CC3)C1 (configuration not stated) | 2.0 | 12 | -6 | . | 0.62 | 2.7 | . | . | .
COc1ccccc1NC(=O)NC1CCCc2ccccc21 (configuration not stated) | -0.9 | 1 | -7 | i | 0.7 | 3.6 | 4 | -4 | -1.7
Cc1ccc(C(=O)O/N=C2/CC3CCC2(C)[C@@]3(C)CBr)cc1 (some centres not stated) | -0.9 | 4 | . | i | . | . | -18 | -11 | -1.5
CC[n+]1c(/C=C2\C=C(C)CC(C)C2)sc2ccccc21 (configuration not stated) | 1.7 | 3 | -5 | . | 0.73 | 1.0 | . | . | .
CCOC(=O)C1CCN(C(=O)Cn2c(=O)oc3cc(S(=O)(=O)N4CCCC4)ccc32)CC1 | 4.2 | 3 | -3 | i | 0.72 | 5.8 | 0 | -3 | -7.1
Cc1ccc(NC(=O)CSc2nc(C)c(Cc3ccccc3)c(=O)[nH]2)cc1 | -3.1 | 3 | -9 | i | 0.69 | 4.7 | 6 | 12 | -0.8
CC1CCCCN1C(=O)COc1ccc(F)cc1 (configuration not stated) | 3.1 | 4 | -7 | . | 0.69 | 2.8 | 9 | 7 | -0.5
CC1CN(C(=S)Nc2ccc(SC(F)F)cc2)CC(C)O1 (configuration not stated) | -0.2 | -5 | 3 | i | . | . | -1 | 4 | 0.0
O=C(NCc1ccccc1Cl)C1CCN(C(=O)c2sccc2-n2cccc2)CC1 | -2.7 | -2 | -32 | i | 0.78 | 2.7 | 0 | -21 | -2.5
CCn1c(=O)n(CC)c2cc(N3CCCC3)c(NC(=O)c3ccccc3OC)cc21 | -0.2 | 14 | 60 | i | 0.71 | 2.0 | -3 | -7 | -2.5
CCOC(=O)CC1(C)Oc2ccccc2N1S(=O)(=O)c1ccc(C)cc1 (configuration not stated) | 1.5 | . | . | i | . | . | -2 | -17 | -14
CCOC(=O)C1CCCN(C/C(O)=C(\C#N)c2nc(-c3ccccc3)cs2)C1 (configuration not stated) | 8.1 | 2 | 13 | . | . | . | . | . | .
CCCC[C@@H]1CNC(=S)N1CCCC | -2.1 | 2 | -3 | i | . | 2.9 | 11 | 6 | 5.2
O=C(COC(=O)c1ccccc1[N+](=O)[O-])c1ccc(C2CCCCC2)cc1 | -0.7 | -2 | 0 | . | 0.73 | 1.6 | . | . | .
CC(=O)Nc1ccc(S(=O)(=O)N2CCN(CCC#N)CC2)cc1 | -2.3 | 5 | . | i | 0.74 | 4.5 | 12 | 14 | 0.6
Cc1cccc(OCC(=O)N(Cc2ccco2)c2c(N)n(Cc3ccccc3)c(=O)[nH]c2=O)c1 | 3.5 | 4 | -29 | i | 0.67 | 0.6 | 5 | 12 | 0.4
COC(=O)C1(C)NC(c2ccc(F)cc2)C2C(=O)N(c3ccc(C)cc3)C(=O)C21 (configuration not stated) | -2.3 | 1 | -4 | i | 0.67 | 4.5 | 5 | 0 | -4.5
CCC(=O)Nc1ccc(Cl)c(NC(=O)c2cccnc2)c1 | 0.6 | 1 | -6 | . | 0.63 | 2.3 | . | . | .
CCn1c(CCNC(=O)c2ccccc2Cl)n[nH]c1=S | -2.0 | 3 | 42 | . | 0.71 | -2.1 | . | . | .
Cc1sc2ncnc(-n3nnc4ccccc43)c2c1C | 1.9 | -1 | -1 | i | 0.68 | -7.7 | -4 | -3 | -3.0
Cc1cccc(-c2noc(CCC(=O)Nc3ccccc3)n2)c1 | 0.6 | -12 | -4 | . | 0.65 | 2.8 | . | . | .
CCOC(=O)c1cc(C)sc1NC(=O)CN1CCN(C(=O)c2ccco2)CC1 | -2.2 | -6 | 3 | i | 0.68 | 0.2 | 2 | -9 | 0.0
CN(C(=O)c1cc(-n2cnnc2)ccc1Cl)c1ccccc1 | -0.6 | 0 | 61 | . | 0.72 | -1.8 | . | . | .
COC(=O)c1ccc(NC(=S)NCC2CC2)cc1 | 0.1 | -1 | 2 | i | 0.68 | 4.3 | 4 | -1 | -1.5
CS(=O)(=O)c1ccc(C2=C(c3ccccc3)C(=O)OC2)cc1 | 0.1 | -13 | 8 | i | 0.69 | 0.1 | . | . | .
COc1ccc(C2(CNS(=O)(=O)c3ccccc3)CCOCC2)cc1 | 0.5 | -3 | -1 | i | 0.69 | 0.7 | 3 | -6 | -8.6
O=C(COC(=O)[C@H](Cc1c[nH]c2ccccc12)NC(=O)c1cccs1)NCc1ccccc1 | 3.2 | 1 | -4 | i | 0.68 | 0.2 | 2 | -2 | -9.3
Brc1cnc2nc[nH]c2c1 | -4.2 | 4 | -9 | i | 0.67 | 3.3 | . | . | .
CCCCN(CC)CCNC(=O)c1cc2c(=O)[nH]c3ccccc3c2n1C | 2.3 | -22 | . | i | 0.67 | -7.5 | -1 | 22 | 0.6
O=C(NCC(c1ccco1)N1CCc2ccccc21)c1cccc([N+](=O)[O-])c1 (configuration not stated) | 2.2 | 8 | 58 | i | 0.7 | 1.2 | -6 | -4 | -1.6
CCOC(=O)[C@@H]1[C@H]2COc3ccc(Br)cc3[C@@H]2N2C(=O)N(c3cccc(Cl)c3)C(=O)[C@]12C | -2.0 | 3 | -3 | i | . | 3.2 | 7 | 3 | -2.5
Cc1ccccc1C1CC(=O)c2ccccc2C1C (configuration not stated) | -1.8 | -4 | . | i | 0.64 | 0.5 | -50 | -75 | -15
C/C(N)=C(/C#N)C(=O)COC(=O)c1ccc(O)cc1 | -0.7 | -7 | 0 | i | 0.65 | 6.3 | -2 | 1 | -8.6
COc1ccc(-c2ccn(-c3cccc(F)n3)n2)cc1 | 4.4 | -12 | . | i | 0.68 | -1.0 | 5 | 6 | -4.6
O=C(Cn1c2c(c(-c3ccccc3Cl)cc1=O)CCC2)NCCCN1CCOCC1 | -1.8 | 2 | . | i | 0.68 | -21 | 20 | 10 | 2.4
NC(=O)c1cnn(-c2cccc(Cl)c2)c1N | 1.9 | 3 | -13 | i | 0.69 | 1.9 | 7 | 1 | -4.6
CC1c2c([nH]c3ccccc23)CCC1C(=O)O (configuration not stated) | -2.4 | 3 | . | . | 0.66 | -0.3 | . | . | .
COc1cccc(NC(=O)COC(=O)CCOc2ccccc2OC)c1 | -0.6 | -7 | 0 | i | 0.73 | 3.2 | -9 | -3 | 3.0
CCCN(CCC)Cc1c(C(=O)N/N=C/c2cccs2)nnn1-c1nonc1N | -5.8 | -20 | . | i | . | . | -2 | -4 | 2.2
O=C(CN(C(=O)c1ccccc1Cl)N1C(=O)CCCC1=O)c1ccc(Cl)cc1 | -0.8 | 1 | 7 | i | 0.68 | 5.3 | 9 | -6 | -4.4
COc1ccc(-c2nnc(SCC(=O)NC(=O)NCc3ccco3)o2)cc1 | -6.0 | 6 | 1 | . | 0.72 | 2.7 | . | . | .
COC(=O)c1ccc(C2/C(=C(/O)c3ccc(OC)cc3)C(=O)C(=O)N2CC2CCCO2)cc1 (configuration not stated) | 3.9 | 4 | 1 | . | 0.69 | 11 | . | . | .
COCCn1c(SCC(=O)Nc2sc(C)c(C)c2C#N)nnc1-c1ccc(OC)cc1 | -1.7 | -2 | . | . | 0.71 | 6.3 | . | . | .
CSc1ccccc1NC(=O)CSc1n[nH]c(N)n1 | -1.6 | -7 | 29 | i | 0.7 | 2.8 | 5 | 5 | -2.2
Clc1ccc(Cn2nc(-c3ccccc3)nc2-c2ccccc2)cc1 | -0.5 | 33 | -7 | . | 0.66 | 1.4 | . | . | .
COCc1nc2ccccc2n1Cc1ccccc1C | 1.7 | 3 | -10 | i | 0.69 | 4.0 | 0 | -1 | -0.8
Cc1nc2ccc(S(=O)(=O)NCC(=O)N3CCc4ccccc4C3)cc2s1 | 1.0 | 16 | -5 | . | 0.77 | -5.5 | . | . | .

Four compounds out of the list, arranged by heavy-atom count, ascending:
SMILES | HNF4A DNA FP | B2AR ag | ALR inh | FGF22 binding | Ecoli growth | UCH37 DUB inh | Ecoli rRNA inh | Ecoli rRNA inh OD600 | Ecoli rRNA inh RFP
C/C(N)=C(/C#N)C(=O)COC(=O)c1ccc(O)cc1 | -0.7 | -7 | 0 | i | 0.65 | 6.3 | -2 | 1 | -8.6
O=C(NCC(c1ccco1)N1CCc2ccccc21)c1cccc([N+](=O)[O-])c1 (configuration not stated) | 2.2 | 8 | 58 | i | 0.7 | 1.2 | -6 | -4 | -1.6
CCCN(CCC)Cc1c(C(=O)N/N=C/c2cccs2)nnn1-c1nonc1N | -5.8 | -20 | . | i | . | . | -2 | -4 | 2.2
O=C(Cn1c2c(c(-c3ccccc3Cl)cc1=O)CCC2)NCCCN1CCOCC1 | -1.8 | 2 | . | i | 0.68 | -21 | 20 | 10 | 2.4

Not all compounds are listed. The share of hits here may be higher or lower than overall.
